# Calb biofilm kill: mixtures killing C. albicans biofilm | C. albicans biofilm persisters + clotrimazole, fluorescence viability; primary screen in compound mixtures of four per well | inhibition, % at 7.6 µM | actives 0.02% (n = 120,000) | AID 1242;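 active = inhibition above 30.3% in the primary screen of four-compound pools, then above 30% when the compound was retested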;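 note: compounds exposed to preformed 24 h biofilms for 48 h; the number belongs to the whole pool; some results filed as inactive read as strong as hits; inactives centre near 12; 0% = biofilm with clotrimazole alone and 100% = kill control; retested singly at about 60 µM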
#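 Test system: C. albicans biofilms. Buffer or medium: RPMI/MOPS medium, pH 7.0. Timing: 48 h compound exposure at 37 °C. Technique: Alamar Blue fluorescence. Evaluation: percent inhibition of biofilm viability.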
# An asterisk follows results filed as active.
SMILES,Calb biofilm kill
Cc1cccn2c(=O)c3cc(S(=O)(=O)c4ccc(F)cc4)c(=N)n(Cc4ccco4)c3nc12,5
COCCCC1CCN(Cc2nc(-c3ccccc3)no2)CC1,29
CN1C(CC(=O)Nc2ccc(Br)cc2)c2ccccc2CC1(C)C (centres undefined),1
Cc1cccc(CSC2=NCCN2C(=O)c2ccc(S(=O)(=O)N(C)C)cc2)c1,13
CC(=O)Nc1ccc(SCC(=O)Nc2ccccc2Oc2ccccc2)cc1,10
Cc1ccc(C(=O)COc2ccccc2-c2ccccc2)cc1,10
COc1ccccc1C1=NOC(Cn2c(NCCCO)nc3c2c(=O)n(C)c(=O)n3C)C1 (centres undefined),20
CCn1c(SCC(=O)N/N=C/c2ccccc2OCC(=O)O)nnc1-c1ccc(OC)cc1,19
COCCn1c(SCC(=O)N2CC(=O)Nc3ccccc32)nnc1-c1ccoc1C,12
Fc1ccc(NC(=S)NC2CCN(Cc3ccccc3)CC2)cc1,12
CCOC(=O)c1cc(NC(=O)c2cccnc2)ccc1N1CCOCC1,4
COC(=O)C(C)Sc1ncnc2c1c(-c1ccccc1)cn2-c1ccc(OC)cc1 (centres undefined),12
CC(=O)N[C@H]1[C@H](OCc2ccccc2F)O[C@H](COC(C)=O)[C@@H](OC(C)=O)[C@@H]1OC(C)=O,3
CC(=O)N1CCN(CC(=O)c2ccc(Br)cc2)CC1,7
CC(C)Cc1nnc(NC(=O)CSc2ncn[nH]2)s1,9
Cc1ccc(CC2CC(=O)N(C(Cc3ccccc3)C(=O)O)C2=O)cc1 (centres undefined),20
CCN(CC)Cc1ccccn1,1
COc1cccc(NC(=O)NCCc2ccc(Cl)cc2)c1,15
O=[N+]([O-])c1ccccc1S(=O)(=O)N1CCN(Cc2ccsc2)CC1,11
O=C(NC(=S)NCc1nc2ccccc2[nH]1)c1ccccc1F,1
Cc1ccc(Nc2nc(N)nc(CN3CCN(Cc4ccc5c(c4)OCO5)CC3)n2)cc1C,33*
O=C(Nc1ccccc1N1CCOCC1)c1cccc(NS(=O)(=O)c2ccc(F)c(F)c2)c1,14
CCN(CC)C(=O)C1CCCN(Cc2nc(-c3cnccn3)no2)C1 (centres undefined),8
O=C(Nc1cccnc1)c1cccc(S(=O)(=O)N2CCc3ccccc32)c1,14
CCOc1cc(C(N)=O)cc(Cl)c1OCc1ccccc1,9
COc1ccc2nc(C)c3c(c2c1)OC(C(C)(Cl)Br)C3 (centres undefined),25
CC1CCc2c(C(=O)Nc3ccc(N4CCOCC4)cc3)csc2C1 (centres undefined),6
COc1ccc(N2C(=O)CC(SCC(=O)O)C2=O)cc1 (centres undefined),13
CCOC(=O)CSc1nc2c(sc3ccc([N+](=O)[O-])cc32)c(=O)n1Cc1ccco1,0
CC(C)C(=O)Nc1ccc(S(=O)(=O)Nc2nccc(/C=C/c3ccccc3)n2)cc1,14
O=c1c2ccccc2nc2c3ccccc3c(NCc3ccccn3)nn12,8
Cc1ccc(S(=O)(=O)N2CCCCC2)cc1NC(=O)COC(=O)Cc1ccc(Cl)cc1,-6
C=CCOc1ccc(CNc2nccs2)cc1,18
Cc1cc(Br)ccc1NC(=O)C(C)c1ccc([N+](=O)[O-])cc1 (centres undefined),10
CCCC(=O)OCC(=O)NCc1ccc(Cl)cc1,19
CCOC(=O)c1c(-c2ccc(OC)cc2)csc1NC(=O)COc1ccc2c(C)cc(=O)oc2c1,20
S=C(NCc1ccccc1)N1CCCCC1,4
COCCCNC(=S)NC(=O)c1ccc(C)cc1,0
COc1ccc2ccccc2c1CNc1nnnn1C,14
Cc1nn(-c2cccc(Cl)c2)nc1C(=O)O,5
Cc1nnc(SCC(=O)N(C)C2CCS(=O)(=O)C2)n1Cc1ccccc1 (centres undefined),2
CC(C)=CCC/C(C)=C/C(=O)O,7
Cc1c(N/C(=N/S(=O)(=O)c2ccc(F)cc2)c2ccccc2)c(=O)n(-c2ccccc2)n1C,13
CN1CCN(NC(=O)c2ccc(Cl)cc2Cl)CC1,8
CCOC(=O)C(C)Oc1ncnc2cccc(F)c12 (centres undefined),0
CC(CC(=O)NCC1CCCO1)c1ccccc1 (centres undefined),18
CCCNC(=S)N1CCN(CC)CC1,10
CN(C)c1ccc(/C=N/N=C/c2ccccc2O)cc1,16
CC1(C)CC(=O)c2sc(NS(=O)(=O)c3ccc(F)cc3)nc2C1,6
CCCCC(=O)NNC(=S)NC(=O)C(c1ccccc1)c1ccccc1,10
O=C(CSc1nc(-c2ccccc2F)nc2nc[nH]c12)Nc1c(Cl)cc(Cl)cc1Cl,15
COc1ccc(/C=C(\C#N)C(=O)OCC(=O)NCc2ccccc2Cl)cc1,5
CN(C)C(=O)COC(=O)c1cccnc1Nc1ccccc1F,18
Cc1ccccc1-n1c(C)cc(/C=C2\NC(=O)NC2=O)c1C,8
CC(C(=O)N1CCCCCC1)c1ccc([N+](=O)[O-])cc1 (centres undefined),4
O=C1CN(C(=O)C2CCCC2)CCN1,7
Cn1c(CC(=O)Nc2ccccc2)n[nH]c1=S,4
CCN(CC)S(=O)(=O)c1ccc(Cl)c(NC(=O)c2ccncc2)c1,4
O=c1c2ccccc2c(C=NCc2ccccn2)c(O)n1-c1ccccc1,17
COc1ccc(-c2nc(=S)c3c([nH]2)Oc2ccc(C)cc2C3)cc1O,11

# (more compounds)
SMILES,Calb biofilm kill
COc1ccc(N2C(=O)CC2(C#N)c2ccc(OCc3ccccc3)cc2)cc1 (centres undefined),10
Cc1ccc(S(=O)(=O)N2CCN(c3ccc(C(=O)N4CCOCC4)cc3[N+](=O)[O-])CC2)cc1,19
COc1ccc(OC)c(NC(=O)COC(=O)/C=C/c2ccc(Cl)cc2)c1,16
Cc1cccc(N=N/C(=C\O)C(=O)c2cccs2)c1,24
O=C(CN1C(=O)C(=O)N(Cc2ccco2)C1=O)c1c[nH]c2ccccc12,21
COc1ccccc1Nc1nc(Cl)nc(Nc2ccccc2OC)n1,4
CCC(=O)c1ccc(OC(=O)c2cccs2)cc1,6
C=CCNC(=S)N/N=C(\C)c1cccc(OC)c1,10
CSc1ccc(/C=c2\s/c(=C\C(=O)C(C)(C)C)n(CC(=O)NCCC3=CCCCC3)c2=O)cc1,11
O=C(CSc1nnc2c(Cl)cc(Cl)cn12)N1CCN(c2ccc(F)cc2)CC1,10
C=CCn1c(O)c(N=NC(=O)c2ccccc2NS(=O)(=O)c2cccs2)c2ccccc21,14
COc1ccc(N(C(=O)c2cc3ccccc3oc2=O)C2C=CS(=O)(=O)C2)cc1 (centres undefined),14

# Sorted by molecular weight (largest number first): some entries from above
SMILES,Calb biofilm kill
Cc1ccc(S(=O)(=O)N2CCN(c3ccc(C(=O)N4CCOCC4)cc3[N+](=O)[O-])CC2)cc1,19
COc1ccc(OC)c(NC(=O)COC(=O)/C=C/c2ccc(Cl)cc2)c1,16
O=C(CN1C(=O)C(=O)N(Cc2ccco2)C1=O)c1c[nH]c2ccccc12,21

# (list continues)
SMILES,Calb biofilm kill
S=c1[nH]cc(-c2ccccc2)[nH]1,1
CS(=O)(=O)n1nc(-c2ccco2)nc1N,4
O=c1cc(N2CCCCCC2)[nH]c(=O)n1-c1ccc(Cl)cc1,15
CC(C)N(C)C(=O)C(=O)c1cccn1-c1cccc(Cl)c1C#N,13
CCCCCNC(=O)N[C@H](C(=O)O)C(C)C,0
C=CCN1C(=S)N[C@@H]2CS(=O)(=O)C[C@@H]21,9
N#C/C(=C/Nc1ccccc1C(=O)O)C(N)=O,16
COC(CNC(=O)c1ccc2c(c1)nc(C)n2-c1ccc(F)c(F)c1)OC,13
O=C(CCCn1c(SCc2cc(=O)n3cc(Cl)ccc3n2)nc2ccccc2c1=O)NCC1CCCO1 (centres undefined),12
CN(CCc1ccccn1)C(=O)c1cccnc1Oc1ccc(Cl)cc1,33
COc1cc(Cl)c(C)cc1NC(C)C(=O)Nc1cc(C(F)(F)F)ccc1N1CCOCC1 (centres undefined),11
COc1cc(/C=N/Nc2nc(=O)[nH]nc2C)ccc1O,25

# Part of the list above, with tabs:
molecule	Calb biofilm kill
CCN(CC)S(=O)(=O)c1ccc(Cl)c(NC(=O)c2ccncc2)c1	4
O=c1c2ccccc2c(C=NCc2ccccn2)c(O)n1-c1ccccc1	17
COc1ccc(-c2nc(=S)c3c([nH]2)Oc2ccc(C)cc2C3)cc1O	11
COc1ccc(N2C(=O)CC2(C#N)c2ccc(OCc3ccccc3)cc2)cc1 (centres undefined)	10
Cc1ccc(S(=O)(=O)N2CCN(c3ccc(C(=O)N4CCOCC4)cc3[N+](=O)[O-])CC2)cc1	19
COc1ccc(OC)c(NC(=O)COC(=O)/C=C/c2ccc(Cl)cc2)c1	16
Cc1cccc(N=N/C(=C\O)C(=O)c2cccs2)c1	24
O=C(CN1C(=O)C(=O)N(Cc2ccco2)C1=O)c1c[nH]c2ccccc12	21
COc1ccccc1Nc1nc(Cl)nc(Nc2ccccc2OC)n1	4
CCC(=O)c1ccc(OC(=O)c2cccs2)cc1	6
C=CCNC(=S)N/N=C(\C)c1cccc(OC)c1	10
CSc1ccc(/C=c2\s/c(=C\C(=O)C(C)(C)C)n(CC(=O)NCCC3=CCCCC3)c2=O)cc1	11
O=C(CSc1nnc2c(Cl)cc(Cl)cn12)N1CCN(c2ccc(F)cc2)CC1	10
C=CCn1c(O)c(N=NC(=O)c2ccccc2NS(=O)(=O)c2cccs2)c2ccccc21	14
COc1ccc(N(C(=O)c2cc3ccccc3oc2=O)C2C=CS(=O)(=O)C2)cc1 (centres undefined)	14
S=c1[nH]cc(-c2ccccc2)[nH]1	1
CS(=O)(=O)n1nc(-c2ccco2)nc1N	4
O=c1cc(N2CCCCCC2)[nH]c(=O)n1-c1ccc(Cl)cc1	15
CC(C)N(C)C(=O)C(=O)c1cccn1-c1cccc(Cl)c1C#N	13
CCCCCNC(=O)N[C@H](C(=O)O)C(C)C	0
C=CCN1C(=S)N[C@@H]2CS(=O)(=O)C[C@@H]21	9
N#C/C(=C/Nc1ccccc1C(=O)O)C(N)=O	16
COC(CNC(=O)c1ccc2c(c1)nc(C)n2-c1ccc(F)c(F)c1)OC	13
O=C(CCCn1c(SCc2cc(=O)n3cc(Cl)ccc3n2)nc2ccccc2c1=O)NCC1CCCO1 (centres undefined)	12
CN(CCc1ccccn1)C(=O)c1cccnc1Oc1ccc(Cl)cc1	33

# Continuation:
SMILES,Calb biofilm kill
Cc1cc(Cl)ccc1NC(=S)NCCCN1CCCC1=O,7
O=C(CCN1C(=O)c2ccccc2C1=O)Nc1ccc(-c2nc3ccccc3s2)cc1,13
CC(C)(C)NC(=O)/C(=C\c1cccnc1)NC(=O)c1ccco1,13
Cc1cc(=O)nc2c3ccccc3n(CC(=O)Nc3ccccc3Br)n12,23
Nn1cnnc1N/N=C/c1ccc(Cl)c([N+](=O)[O-])c1,1
CCCSc1ccc(C(=O)Nc2ccc(F)cc2F)cn1,7
COc1ccc(NC(=S)Nc2cccc(C)n2)cc1,18
COc1ccc(Nc2ccc(Nc3ccc(OC)cc3)nn2)cc1,14
Cc1cc(C(=O)N/N=C/c2ccccc2)c(C)o1,24
Cn1nccc1NC(=O)Nc1ccc(OC(F)(F)F)cc1,22
COc1ccc2c(-c3ccccc3)cc(SCC(N)=O)nc2c1,9
CN(C(=O)CSc1nnc(-c2ccccc2)n1C)C1CCS(=O)(=O)C1 (centres undefined),8
Cc1cccc(C)c1-n1c(=O)n(Cc2ccccc2)c(=O)c2[nH]cnc21,30
Cn1c2ccccc2c2nnc(SCc3nnc(-c4ccccc4)o3)nc21,10
C/C(=N\N)c1c(-c2ccccc2)c2cc(Br)ccc2[nH]c1=O,32
Cc1ccc(S(=O)(=O)CCC(=O)OCC(=O)c2c(C)[nH]c3ccccc23)cc1,-6
O=C1/C(=C\c2cccs2)SC(=S)N1C1CCS(=O)(=O)C1 (centres undefined),-1
CCOC(=O)c1cn2nc(Oc3cccc(F)c3)ccc2n1,0
COc1cc(NC(=S)Nc2cccnc2)cc(OC)c1,20
O=C(O)COc1ccccc1/C=N/NC(=O)/C(=C\c1ccc2c(c1)OCO2)NC(=O)c1ccccc1,13
NC(=O)[C@@H]1CCCNc2c(I)cc([N+](=O)[O-])cc2C(=O)N[C@@H](CCCN=C(N)N)C(=O)N[C@@H](CCCN=C(N)N)C(=O)N1,5
COc1ccc(CN(Cc2cccn2C)C(=O)c2cc3cc(OC)ccc3[nH]2)cc1,24
CCOc1ccc(N2C(=O)CC(NCc3ccc(S(N)(=O)=O)cc3)C2=O)cc1 (centres undefined),10
COCCNC(=O)/C(C#N)=C/c1ccc(N2CCOCC2)o1,8

# Source: PubChem (PCMD)

# Some of the compounds tested, so the mix of outcomes need not match the whole.
